# Anaer choline gr: growth inhibitors of anaerobic choline-fed gram-negatives, minimal medium, absorbance; Gram-negative bacterium anaerobic choline minimal medium; stronger effect = lower value; many inactives read as strong as hits in the columns shown; calls only; 55,000 compounds, 0.2% hits;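 active = growth z-score on choline under -2 at 7 or 20 h with little or no fall on glycerol, limits in tiers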;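 note: stock transfer was 300 nL into about 50 µL; the organism is E. coli; final concentration not given here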
# Anaer choline gr early: further read-out of Anaer choline gr, marked with its call; z-score; measured here: choline growth z-score, timepoint 1;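 score of optical density at 7 h as mean of two plates; lower means less growth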
# * hit, by the source's call; i = inactive; & = joins results of further samples. A portion of the library; rates above refer to the full screens.
molecule | Anaer choline gr | Anaer choline gr early
CCCN(CCC)C(=O)c1cc2cccnc2n(Cc2ccccc2)c1=O | i | -1.2
Cc1cc2n(n1)CCCN2C(=O)Nc1cc(Cl)ccc1C | i | -0.45
CC(C)CNC(=O)C1=C(c2ccccc2)c2cc(Cl)ccc2S(=O)(=O)N1C | i | -0.62
Cc1cccc2c1-c1sc(C(=O)NCCc3ccc(S(N)(=O)=O)cc3)cc1CO2 | i | -0.55
CC(C)NC(=O)CN1CCN(C(=O)c2sc3ncccc3c2-n2cccc2)CC1 | i | -0.74
O=C(Nc1ccc2c(c1)CCC2)c1cc2c(s1)CN(C1CC1)C2 | i | 0.57
COC(=O)C1=C(C)NC(C)=C(C(=O)OCCCN2CCC(c3ccccc3)(c3ccccc3)CC2)C1c1cccc([N+](=O)[O-])c1 (stereo not given) | i | 0.92&0.57
CCCN1CCN(C(=O)C2CCCN2c2nnc(N3CCCC3=O)s2)CC1 (stereo not given) | i | -1.2
CC(C)OC(=O)CCC/C=C\C[C@@H]1[C@@H](/C=C/[C@H](O)C2Cc3ccccc3C2)[C@@H](F)C[C@@H]1O | i | -4.2
Cc1nc(-c2ccc(F)cc2)sc1-c1ccc(SCc2ccccn2)nn1 | i | 1.5
Cc1cccc(Nc2nc(Nc3ccccc3)c3cnn(C)c3n2)c1 | i | 1.5
COc1ccc(NC(=O)c2cn(-c3cc(-c4noc(C)n4)ccc3C)nc2C)cc1OC | i | -0.17
N[C@H](CO)C(=O)O | i | 0.54
Cc1ccc2c(C)nc(Nc3ncc4c(n3)CCCC4=O)nc2c1 | i | 0.31
CCNC(=O)NC1CCN(c2nc(C)cc(C)n2)CC1 | i | 1.1
Fc1ccccc1-c1nnc2sc(-c3cc4ccccc4[nH]3)nn12 | i | -1.7
O=C(Nc1ccc(Br)cc1F)C1CCC(=O)N1S(=O)(=O)c1ccccc1 (stereo not given) | i | -0.98
O=S(=O)(c1cc(F)ccc1F)N1CCC2(CC1)Nc1ccc(Cl)cc1-n1cccc12 | i | -0.1
CC#CCC(C)[C@H](O)/C=C/[C@@H]1[C@H]2C/C(=C/CCCC(=O)O)C[C@H]2C[C@H]1O (stereo not given in full) | i | 0.04
COc1ccc(-c2nnc3sc(-c4ccc(N(C)C)cc4)nn23)cc1 | i | 0.27

# Going on with the list:
molecule | Anaer choline gr | Anaer choline gr early
CC1(C)CCC(C)(C)c2cc(C(=O)Nc3ccc(C(=O)O)cc3)ccc21 | i | 0.8&0.32
CNC(=O)c1nnc(-c2cccc(Cl)c2)o1 | i | -0.96
CCOc1ccc(C2Nc3ccc(CC)cc3[C@H]3OCCC[C@@H]23)cc1OCC (stereo not given in full) | i | 0.91
CCN(CC)CCNC(=O)CN1CCn2nc(-c3ccccc3)cc2C1=O | i | 0.39
c1nc(N2CCCC2)c2nc3n(c2n1)CCCCC3 | i | 0.05
CCS(=O)(=O)Nc1ccc(Nc2nc(C)cc(N(C)C)n2)cc1 | i | 0.75
Cc1cc(C)cc(N2C(=O)c3ccccc3C2C(=O)NCCC(C)C)c1 (stereo not given) | i | -0.4
Cc1nc2ncccc2c(=O)n1-c1cccc(NC(=O)CC2CCCC2)c1 | i | -0.35
O=S(=O)(NCc1nc2cccnc2n1C1CC1)c1ccccc1 | i | -1.9
Cc1csc(-c2cc(S(=O)(=O)NCCc3cccs3)c(C)n2C)n1 | i | -0.34
CCn1c(C)ccc(-c2noc(CCC(=O)Nc3nccs3)n2)c1=O | i | -0.55
Cc1cc(C)cc(NC(=O)N2CCC(c3nc(-c4ccccc4)no3)CC2)c1 | i | 0.54
CC(C)CCNC(=O)C1CCN(C(=O)c2cccc(NS(=O)(=O)c3ccc(C(C)C)cc3)c2)CC1 | i | -0.32
Cn1c(=O)c2c(ncn2Cc2ccc(Cl)cc2)n(C)c1=O | i | 0.34
Cc1ccc(Sc2cc3c(cc2NS(=O)(=O)c2ccccc2Cl)n(C)c(=O)n3C)cc1 | i | 0.64
Cc1ccc(CN2CCN(C3CCN(S(=O)(=O)c4ccc(C)c(C)c4)CC3)C(=O)C2=O)cc1 | i | -0.14
CC(C)CN1CCN(Cc2nc(-c3ccc(N4CCSCC4)nc3)no2)CC1 | i | -0.53
CCOc1ccc(CCNc2ccc3nnc(-c4ccccc4)n3n2)cc1OCC | i | 1.1
CCOc1ccc(OC(=O)c2cc3c(C)nn(-c4ccc(F)cc4)c3s2)cc1 | i | -0.77
CC1CCN(C(=O)Cn2cc(SCc3ccc(Cl)cc3)c3ccccc32)CC1 | i | 2

# Remaining list, next part:
molecule | Anaer choline gr | Anaer choline gr early
O=C(C1CCN(c2nn3cc(-c4ccc(F)cc4)nc3s2)CC1)N1CCOCC1 | i | 0.32
Cn1cc(C(=O)NC2CCCCC2)c2[nH]c(=O)n(-c3ccccc3)c(=O)c21 | i | -0.91
O=C(Nc1ccc2c(c1)OCCO2)N1CCN(Cc2cc(=O)n3nc(-c4ccccc4)sc3n2)CC1 | i | -1.3
O=C(NCCc1c[nH]c2ccccc12)c1cc(S(=O)(=O)N2CCCCC2)ccc1Cl | i | 2.1
COc1cc(NC(=O)c2nn(C)c3c2CSc2ccccc2-3)cc(OC)c1 | i | 0.2
O=S(=O)(c1ccc(Cl)cc1)N1CCCC(c2nc(-c3ccccc3)no2)C1 (stereo not given) | i | -0.07
O=C(Nc1ccc2c(c1)OCCO2)N1CCC(n2cnc3cc(F)ccc3c2=O)CC1 | i | 1.1
O=C(CCc1nc(CS(=O)(=O)c2ccccc2)no1)NCCCN1CCCC1=O | i | 0.11
O=C(NCCC1=CCCCC1)c1cc2occc2c(Nc2ccc(F)cc2)n1 | i | 0.96
CCOc1ccc(-c2nc(CNC)c(C)o2)cc1 | i | -2.8
CSC(N)=NCCC[C@H](N)C(=O)O | i | 0.3
O=C(c1coc(C2CC2)n1)N1CCN(Cc2noc(-c3ccccc3)n2)CC1 | i | 1
Cc1ccc(Cl)cc1NC(=O)CCc1nc(CSc2nc3ccccc3o2)no1 | i | 0.24
O=C(c1ccc(F)cc1F)N1CCC(c2noc(-c3ccc(S(=O)(=O)N4CCCC4)cc3)n2)CC1 | i | 1.1
O=C(CSc1ncnc2c1sc1cccc(F)c12)NCc1ccccn1 | i | -0.21
Fc1ccccc1-c1nnc2sc(-c3ccc4ccccc4n3)nn12 | i | 0.01
O=C(O[C@H]1CN2CCC1CC2)N1CCc2ccccc2C1c1ccccc1 (stereo not given in full) | i | -1.3
O=C(CC1NCCNC1=O)OCCc1ccccc1 (stereo not given) | i | -2.6
COc1ccc(C2=NC3(CCN(C)CC3)NC(c3cc(Br)ccc3O)C2)cc1 (stereo not given) | i | -1.8
COC(=O)c1c(C)oc2ccc(N(C(=O)c3ccncc3)S(=O)(=O)c3ccccc3)cc12 | i | 0.65

# Structures above that have a furan ring, fused or not:
molecule | Anaer choline gr | Anaer choline gr early
O=C(NCCC1=CCCCC1)c1cc2occc2c(Nc2ccc(F)cc2)n1 | i | 0.96
COC(=O)c1c(C)oc2ccc(N(C(=O)c3ccncc3)S(=O)(=O)c3ccccc3)cc12 | i | 0.65

# Carrying on:
molecule | Anaer choline gr | Anaer choline gr early
Cc1ccccc1-c1nc(CS(=O)CC(=O)N2CCN(c3cc(Cl)ccc3C)CC2)c(C)o1 (stereo not given) | i | -1
Cc1ccc(S(=O)(=O)Nc2cc3c(cc2N2CCOCC2)n(C)c(=O)n3C)c(C)c1 | i | -0.55
CC(C)n1c(=O)c2ccc(C(=O)NC3CCCC3)cc2n2c(=O)n(CC(=O)NC(C)(C)C)nc12 | i | 0.02
CCOC(=O)c1c(C)[nH]c(C)c1S(=O)(=O)N1CCC(C(=O)Nc2cc(C)ccn2)CC1 | i | -1.4
O=c1[nH]cnc2c1nc(SCc1cn3ccccc3n1)n2-c1ccccc1 | i | 0.22
CCOC(=O)c1c(NC(=O)NCCN2CCCc3ccccc32)sc2c1CCCC2 | i | 1.6
O=C(c1c2c(nc3ccccc13)C(=O)N(C1CCCCC1)C2)N1CCCc2ccccc21 | i | -0.7
CCn1c(=O)c(SCC(=O)N2CCN(c3ccccc3)CC2)nc2ccccc21 | i | 0.61
Cc1ccc(-c2nc(C)cc(=O)[nH]2)cc1 | i | -2.1
Cc1ccccc1NC(=O)CCn1c(C(F)(F)F)nc2cc(S(=O)(=O)N(C)C)ccc21 | i | -0.78
Cc1nc(CN2C(=O)COc3ccc(S(=O)(=O)N4CCN(C)CC4)cc32)no1 | i | -1
Cc1cc(C)n(-c2nc3ccccc3nc2Nc2ccc3c(c2)OCCO3)n1 | i | 0.5
Cc1ccc(NC(=O)c2sc(=S)n3c2[nH]c(=O)c2cc(Cl)ccc23)c(C)c1 | i | -1.5
COc1ccc(-n2nnc3c(N4CCN(C(=O)C5CC(=O)N(c6ccccc6)C5)CC4)ncnc32)cc1 (stereo not given) | i | 0.29
COc1ccc(NC(=O)c2cc(C)nc3c2c(=O)n(C)c(=O)n3C)cc1 | i | 1
CCOC(=O)c1c(C)[nH]c(C)c1S(=O)(=O)N1CCC(C(=O)Nc2cccnc2)CC1 | i | 0.14
Cc1oc2ncnc(Oc3ccc(Br)cc3F)c2c1C | i | 0.87
CCN(CC)CCNC(=O)c1ccc(CN2CC(=O)N3CCCCC3C2=O)cc1 (stereo not given) | i | 0.61
Cc1ccc2ccc3cc(C(=O)NC4CCCCC4)nc3c2[nH]1 | i | -2.1
Cc1ccc(-c2nc(SCC(=O)NCC3CCCO3)c(-c3ccccc3)[nH]2)cc1 (stereo not given) | i | 0.52

# Next part:
molecule | Anaer choline gr | Anaer choline gr early
CC(C)NC(=O)CCn1c(=O)c2ccccc2n2c(SCc3ccccc3F)nnc12 | i | 0.21
O=C(CCn1cnc2cc(S(=O)(=O)N3CCCC3)ccc21)N1CCN(c2ccccn2)CC1 | i | 0.35
CCCCN(C)c1ccc(NC(=O)C2CCC2)c(C(=O)O)c1 | i | 0.35
O=C(c1ccc2ccnc(N3CCN(c4ccc(F)cc4)CC3)c2c1)N1CCN(c2ncccn2)CC1 | i | 2.3
Cc1ccc(C)c(CNS(=O)(=O)c2cc(-c3csc(C)n3)sc2C)c1 | i | -0.58
CCC(=O)Nc1cc(Cl)ccc1OCc1cc(=O)n2oc(C)cc2n1 | i | -0.26
COC(=O)c1cc2n(n1)CC(C)(C(=O)NC1CCCCC1)N(c1cc(OC)cc(OC)c1)C2=O (stereo not given) | i | -1.5
O=C(NCc1ccc2c(c1)OCO2)c1cncc(NS(=O)(=O)c2ccc3c(c2)OCCO3)c1 | i | 0.04
CC1(C)C(=O)NCCN1C(=O)NCC1CCCO1 (stereo not given) | i | 0.35
c1cnc2nc[nH]c2c1 | i | 0.15
COc1ccccc1NC(=O)Cn1ncn2nc3c(c2c1=O)CCCC3 | i | 0.73
Cn1c(SCC(=O)NC2CCCC2)nc2nc(N3CCCC3)sc2c1=O | i | -0.39
CN(C(=O)c1c2c(nc3ccccc13)C(=O)N(C1CCCCC1)C2)c1ccccc1 | i | 0.65
COc1ccc(CNC(=O)CCc2nnc3c4cc(-c5ccc(C)cc5)nn4ccn23)cc1 | i | 0.65
Cc1cccc(CC(=O)N2CCc3c(c(C(=O)N4CCCC(C(=O)Nc5ccccc5)C4)nn3C)C2)c1 (stereo not given) | i | -0.81
CCOc1ccc(NC(=O)Nc2nccn(-c3ccc(Cl)cc3)c2=O)cc1 | i | 0.41
COC(=O)CSc1nn2c(=O)c(C)nnc2s1 | i | 0.34
CCc1ccc(OC(C)C(=O)N(Cc2ccccc2)C2CCS(=O)(=O)C2)cc1 (stereo not given) | i | 0.73
CC1=C(C(=O)Nc2cccc(C(=O)N3CCN(c4ccccn4)CC3)c2)SCCO1 | i | 1.2
CCC(C(=O)NC(C)C)N1CCN(Cc2ccc(F)cc2)C(=O)C1=O (stereo not given) | i | 0.41

# An excerpt from above in order of the Anaer choline gr early value, descending:
SMILES,Anaer choline gr early
CC1=C(C(=O)Nc2cccc(C(=O)N3CCN(c4ccccn4)CC3)c2)SCCO1,1.2
c1cnc2nc[nH]c2c1,0.15
c1nc(N2CCCC2)c2nc3n(c2n1)CCCCC3,0.05
O=S(=O)(c1cc(F)ccc1F)N1CCC2(CC1)Nc1ccc(Cl)cc1-n1cccc12,-0.1
CC(C)CCNC(=O)C1CCN(C(=O)c2cccc(NS(=O)(=O)c3ccc(C(C)C)cc3)c2)CC1,-0.32
Cc1csc(-c2cc(S(=O)(=O)NCCc3cccs3)c(C)n2C)n1,-0.34

# (more compounds)
molecule | Anaer choline gr | Anaer choline gr early
CCCC(=O)Nc1cc(-c2nc3ccccc3[nH]2)ccc1C | i | 0.46
O=C1COc2ccc(S(=O)(=O)N3CCCC3C(=O)NCc3ccc(Cl)cc3)cc2N1 (stereo not given) | i | -0.39
CCOc1cccc(CN2CCCC2c2c(C)noc2C)c1O (stereo not given) | i | -0.7
Cc1cccc(CNC2=NCCNC23CCC(C)CC3)c1 (stereo not given) | i | -1.4
CNC(=O)CN1C(=O)C2CCCCN2c2ccc(C(=O)N(C)C)cc21 (stereo not given) | i | -0.07
C=Cc1ccc(CSc2nnc3n(CC(C)C)c(=O)c4ccccc4n23)cc1 | i | 0.57
CCOc1ccc(CN2CCCC2c2c(C)noc2CC)cc1OC (stereo not given) | i | 0.27
Cn1c(N2CCN(C(=O)CCC(=O)N3CCOCC3)CC2)cc(=O)n(C)c1=O | i | 0.28
Cc1cc(C(=O)N2CCCCC2)on1 | i | 0.56
O=C(CN1C(=O)CCCc2cc(S(=O)(=O)N3CCCC3)ccc21)NCc1ccccn1 | i | 0.16
COc1ccc(NC(=O)c2nnc(C3CCN(C(=O)Nc4ccccc4Cl)CC3)s2)cc1 | i | 0.81
CC1CCC(NC(=O)C2CCCN2S(=O)(=O)c2cc3c(cc2Cl)NC(=O)CO3)CC1 (stereo not given) | i | 0.2
CCN(C(=O)Nc1ccccc1C(=O)OC)c1nc(-c2ccc(Br)cc2)cs1 | i | -0.48
COc1ccccc1CNC(=O)c1cn(C)c(=O)c2c1c1ccccc1n2C | i | 0.05

# Bioassay records (PubChem BioAssay)
